Mtb H37Rv – M. tuberculosis H37Rv growth inhibitors, H37Rv strain (AID 1626). inhibition, % at 10 µM, or IC50 in µM where a hit was titrated. hit rate 0.95% among 220,000. M. tuberculosis H37Rv growth inhibition; higher % means a stronger effect;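 active = confirmed in a dose series; inconclusive = inhibition above 80% but not taken into the dose series; inactive = below 80% or under 30% at every dose of the series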;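 note: bacteria incubated seven days before Alamar blue readout; 0% = bacteria only wells and 100% = bacteria with antibiotic wells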
Arbovirus anti – antivirals against arbovirus infection, primary screen, cell-based, full library, 10K replicate subset | hit rate 0.37% among 200,000 | inhibition, % at 10 µM | arbovirus infection cell-based antiviral screen;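 active = inhibition from about 30%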;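 note: bluetongue infection of BSR cells; cell survival read as ATP light after 72 h; 0% = infected wells without compound and 100% = uninfected wells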
YopH PTP inh – YopH tyrosine phosphatase inhibitors, primary screen, biochemical, fluorescence Ex485/Em525 | YopH tyrosine phosphatase [Yersinia enterocolitica] | AID 898, 2007 | hit rate 0.16% among 140,000 | inhibition, %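 (about 10 µM by stock and volumes)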;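 active = inhibition of 50% or more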;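 note: controls were vehicle for no effect and minimum signal wells for full effect; inactives centre near -20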
Mtb betalactam – beta-lactam sensitization of Mtb H37Rv, H37Rv; M. tuberculosis H37Rv growth with meropenem, percent inhibition; hits of this screen are not shown here; inhibition, % at 25 µM; hit rate 0.27% among 330,000; AID 434955, 2010;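 active = about 74% or more and at least 40 points above the plate without the antibiotic, then above 30% in a dose series; inconclusive = first-round hits that could not be retested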;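 note: growth measured after seven days incubation then overnight dye step; 0% = bacteria only wells and 100% = bacteria with antibiotic; twin plates without the antibiotic show which effects depend on it; some results filed as inactive read as strong as hits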
RecA intein inh – Mtb RecA intein splicing inhibitors, primary screen, biochemical, fluorescence, HTS. cell-free RecA intein splicing. inhibition, %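 (about 9 µM by stock and volumes)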. hit rate 0.75% among 290,000; in the data active = inhibition above about 30%; inconclusive = no clear call, values can overlap the other calls;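 note: 0% = vehicle wells and 100% = reference inhibitor control wells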
Target sequence (P9WHJ3 whole entry, looked up): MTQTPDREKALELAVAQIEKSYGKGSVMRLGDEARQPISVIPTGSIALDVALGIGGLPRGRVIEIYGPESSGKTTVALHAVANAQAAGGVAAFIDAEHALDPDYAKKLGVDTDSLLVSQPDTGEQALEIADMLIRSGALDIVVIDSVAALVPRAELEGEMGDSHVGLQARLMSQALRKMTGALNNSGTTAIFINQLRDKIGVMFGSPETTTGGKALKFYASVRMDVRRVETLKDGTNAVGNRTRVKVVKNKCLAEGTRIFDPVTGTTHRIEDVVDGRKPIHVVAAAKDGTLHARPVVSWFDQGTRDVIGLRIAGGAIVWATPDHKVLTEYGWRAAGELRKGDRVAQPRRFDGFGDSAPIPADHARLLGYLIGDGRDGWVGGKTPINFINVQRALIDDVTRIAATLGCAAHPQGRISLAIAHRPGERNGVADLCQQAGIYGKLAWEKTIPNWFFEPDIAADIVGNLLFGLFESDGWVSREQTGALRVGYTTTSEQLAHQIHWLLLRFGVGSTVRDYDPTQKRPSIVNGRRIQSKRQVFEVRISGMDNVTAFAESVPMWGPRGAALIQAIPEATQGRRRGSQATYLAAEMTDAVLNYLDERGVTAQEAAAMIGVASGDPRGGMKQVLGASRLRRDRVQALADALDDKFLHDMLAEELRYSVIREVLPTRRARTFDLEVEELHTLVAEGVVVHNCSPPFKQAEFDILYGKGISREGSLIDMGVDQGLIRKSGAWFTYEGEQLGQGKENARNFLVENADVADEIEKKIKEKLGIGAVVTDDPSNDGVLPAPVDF
Arbovirus anti repeat – also measured in Arbovirus anti; calls as there; inhibition, %; measured here: 10K subset replicate screen; many hits read low in the repeat;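 first of two repeat runs on a subset; 0% = infected and 100% = uninfected wells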
* = called active by the depositor; ? = inconclusive; nt = no result given. An excerpt; rates above refer to the full screens.

SMILES	Mtb H37Rv	Arbovirus anti	YopH PTP inh	Mtb betalactam	RecA intein inh	others
CCN(CC)S(=O)(=O)c1cccc(NC(=O)COC(=O)c2cc(=O)c3ccccc3o2)c1	5%	5	nt	0	1.5
Cc1ccc2nc(-c3ccc(NS(=O)(=O)c4ccc(F)c(F)c4)cc3)sc2c1	13%	-40	-22	17	3.9
COc1cccc(-n2nnc3c(=O)n(Cc4ccc(C)cc4)cnc32)c1	-3%	2	-37	-13	3.7
O=C(NCCN1CCN(C(=O)c2ccc(F)cc2)CC1)C(=O)NCc1ccccc1	nt	nt	nt	-6	-1.2
CCNC(=S)Nc1ccc(OCC)cc1	0%	8	5	-4	1.3
COc1ccc(NC(=O)NCc2cccnc2)cc1	nt	nt	nt	-6	-0.4
CCCc1nc2c(nnn2Cc2ccccc2F)c(=O)[nH]1	-1%	9	-22	5	-2.8
CC1=Nc2cc([N+](=O)[O-])ccc2NC(C)(C)C1	69%	-3	nt	24	5.3
COc1cc2c(cc1OC)CN(C(=O)CN1CCN(S(=O)(=O)c3ccccc3)CC1)CC2	nt	nt	nt	-3	-1.7
COc1c(S(=O)(=O)N2CCCCC2)ccc2c(S(=O)(=O)N3CCCCC3)cccc12	nt	nt	-23	-2	nt
CCOc1ccc(N2C(=O)C(c3ccccc3)=C(c3nc4ccccc4s3)C2NC(C)=O)cc1 (configuration not stated)	?	-4	-13	96	7.2
CCOC(=O)c1c(-c2ncc(C(F)(F)F)cc2Cl)noc1C	5%	4	nt	3	-1.1
CCOC(CNc1c([N+](=O)[O-])c(=O)n(C)c(=O)n1C)OCC	3%	5	-21	-2	-3.4
COc1cccc(/C=C2\SC(=S)N(CCCC(=O)Nc3cc(C)on3)C2=O)c1	nt	nt	nt	-1	-2.1
COc1ccc(C(=O)N=C2SC3CS(=O)(=O)CC3N2Cc2ccc(OC)c(OC)c2)cc1 (configuration not stated)	nt	nt	nt	2	1.4

2 neighbouring compounds from above, for reference:
SMILES	Mtb H37Rv	Arbovirus anti	YopH PTP inh	Mtb betalactam	RecA intein inh	others
CCCc1nc2c(nnn2Cc2ccccc2F)c(=O)[nH]1	-1%	9	-22	5	-2.8
CC1=Nc2cc([N+](=O)[O-])ccc2NC(C)(C)C1	69%	-3	nt	24	5.3

(continued)
SMILES	Mtb H37Rv	Arbovirus anti	YopH PTP inh	Mtb betalactam	RecA intein inh	others
O=C(Nc1nc2ccccc2[nH]1)C1CCC1	6%	-6	nt	-9	-2.4
C=CCNc1nc(Nc2ccc([N+](=O)[O-])cc2)nc(OCC)n1	-3%	-4	-10	-7	8.2
CCOC(=O)C1=C(c2ccccc2)NC(=S)NC1c1ccc(Cl)cc1 (configuration not stated)	9%	nt	nt	-1	8.8
CCCS(=O)(=O)c1csc(C(=O)OC)c1N	-5%	nt	nt	-2	-0.6
CCN(CC)Cc1nc2c(c(=O)[nH]1)C1(CCCC1)Cc1ccccc1-2	?	-11	-149	99	3.0
COC(=O)Cn1c2nc3ccccc3nc2c2cccc(C)c21	nt	nt	nt	10	-7.9
COc1ccc(CCNC(=O)CCc2cn(C)c3ccccc23)c(OC)c1OC	nt	nt	nt	5	1.7
O=C(NNS(=O)(=O)c1ccc(F)cc1)c1cc(Cl)ccc1O	nt	nt	nt	-1	-5.5
Cc1ccc(S(=O)(=O)NC(=O)c2cc(C)n(-c3ccc(N(C)C)cc3)c2C)cc1	-4%	9	-6	-7	0.7
O=C(O)C1=C[C@H](c2coc3ccccc3c2=O)C[C@H](OCCCCO)O1	-4%	0	nt	6	-4.1
Cc1ccc(C)c(OCCC(=O)OCC(=O)Nc2ccc(Cl)cn2)c1	nt	nt	nt	1	2.1
O=C(c1ccccc1[N+](=O)[O-])N1N=C(c2ccccc2)CC1(O)C(F)(F)F (configuration not stated)	nt	nt	nt	-4	-0.8
COc1ccc(NC(=O)Cc2ccc(C)cc2)c([N+](=O)[O-])c1	4%	4	-5	8	1.9
Cc1ccc(S(=O)(=O)N(CC(=O)N2CCCCCC2)c2ccccc2F)cc1	nt	nt	nt	-3	-2.1
CC(C)CCn1nnnc1C(c1ccccc1)N1CCN(C)CC1 (configuration not stated)	-11%	6	-13	-2	-2.4

The final two records of the part above come first, to join the parts:
SMILES	Mtb H37Rv	Arbovirus anti	YopH PTP inh	Mtb betalactam	RecA intein inh	others
Cc1ccc(S(=O)(=O)N(CC(=O)N2CCCCCC2)c2ccccc2F)cc1	nt	nt	nt	-3	-2.1
CC(C)CCn1nnnc1C(c1ccccc1)N1CCN(C)CC1 (configuration not stated)	-11%	6	-13	-2	-2.4
O=C1CSC(c2cccc([N+](=O)[O-])c2)N1c1c(F)cccc1F (configuration not stated)	-5%	-13	nt	6	nt
CCN(CC)S(=O)(=O)c1ccc(Cl)c(C(=O)NCCN2CCOCC2)c1	nt	nt	nt	-2	-1.9
Cc1cc(NC(=O)COC(=O)C2CCC(=O)N2)c([N+](=O)[O-])cc1C (configuration not stated)	-2%	-1	nt	0	3.5
Cc1ccn(CC(=O)N2N=C(C(F)F)CC2(O)C(F)F)n1 (configuration not stated)	-6%	5	-20	5	-0.2
O=c1c2ccccc2nnn1CSc1nnc(-c2cccs2)n1Cc1ccccc1	1%	3	-25	1	3.0
N#CC(C#N)=C1C=CC=CN1/C(=C\c1ccco1)C(=O)c1ccc(Cl)cc1	6%	-33	-22	2	nt
CCOC(=O)c1c(-c2ccc(OC)cc2)cn2ccccc12	2%	-5	nt	-6	-0.6
CCCCNS(=O)(=O)c1ccc2nc(-c3cccnc3)cc(C(=O)NC3CCCC3)c2c1	-7%	nt	nt	-10	0.2
CC1CCN(CCCNC(=O)c2ccc3c(=O)n(CCc4ccccc4)c(=O)[nH]c3c2)CC1	-3%	-11	-19	?	-4.9
Cc1cc(C)n2nc(C)c(-c3ccccc3)c2n1	nt	nt	nt	-1	1.6
C=CCN(C(=O)C1=NN(C2CCS(=O)(=O)C2)C(=O)CC1)c1nc(-c2ccc([N+](=O)[O-])cc2)cs1 (configuration not stated)	1%	-6	nt	0	3.1
Cc1ccc(C(=O)NCC(=O)N/N=C/c2cccs2)cc1C	-3%	16	nt	1	0.1
CC(=NCCCN1CCOCC1)c1c(O)[nH]c(=O)[nH]c1=O	-5%	-3	-43	0	-1.6
CC(C)(C)NC(=O)CSc1nnc(C2CC2)n1Cc1ccccc1	6%	-4	-18	3	2.7
Cc1cc([N+](=O)[O-])cc(/C=N/n2c(C)nc3ccccc3c2=O)c1O	1%	nt	nt	6	12
CCCC1COC(Cn2cncn2)(c2ccc(C)cc2)O1 (configuration not stated)	-14%	-5	-44	0	0.0
COc1ccc(S(=O)(=O)n2c([N+](=O)[O-])cnc2C)cc1OC	nt	nt	nt	7	-0.4
c1ccc(-c2nc(N3CCCCCC3)nc(-n3ccnc3)n2)cc1	0.25µM*	-36	-6	100	46*
O=C1OC2CCC1(c1ccccc1)C2 (configuration not stated)	-12%	9	-8	-2	-0.8
Cn1c(Cn2c(=O)sc3ccccc32)nnc1SCc1ccccc1F	-3%	-8	-26	-1	0.3	Arbovirus anti repeat=-10
CCn1nnc(-c2ccccc2NC(=O)c2cccc(-n3cnnn3)c2)n1	-4%	-7	-36	2	0.1
O=C(Cc1ccccn1)c1ccc(O)cc1O	nt	nt	nt	1	0.2
CCOC(=O)CCNC(C(=O)OCC)c1ccccc1 (configuration not stated)	4%	9	-27	8	3.2
O=C(CSCc1ccc(Cl)cc1)N1CCN(Cc2ccc3c(c2)OCO3)CC1	9%	12	3	11	5.2
CC(C)n1c(SC2C(=O)CC(C)(C)CC2=O)nc2c1c(=O)n(C)c(=O)n2C	-6%	2	-37	-5	-1.9
COc1ccc(N(CC(=O)N2CCN(c3ccc(F)cc3)CC2)S(=O)(=O)c2c(C)noc2C)cc1	nt	nt	nt	1	1.0
CC(=O)c1c(C)n(-c2ccc(Cl)cc2)c2ccc(O)cc12	nt	nt	nt	6	-1.1
COc1cc(NC(=O)C(=O)NCCN(C)C)c(OC)cc1Cl	2%	13	nt	-7	-3.8
CCn1cc(C(=O)NCc2ccc3c(c2)OCO3)c(=O)c2cc(F)c(N3CCN(C)CC3)cc21	-6%	-9	-18	0	-4.6
O=[N+]([O-])/C=C/c1c(OCc2ccccc2)ccc2ccccc12	42%	-36	-32	99	-0.3
Cc1cc2ncn(CC(O)COC3CCCCC3)c2cc1C (configuration not stated)	4%	12	-28	11	3.1	Arbovirus anti repeat=6
CCOC(=O)Cn1cc(C=C2C(=O)N(C)C(=O)N(C)C2=O)c2ccccc21	nt	nt	nt	-3	-2.6
COc1ccc(N(C(=O)c2csnn2)C(C(=O)NC2CCCC2)c2cccs2)cc1 (configuration not stated)	nt	nt	nt	-1	0.8
O=C(CNC(=O)CNC(=O)c1ccc(Cl)cc1Cl)NCc1cccc(Cl)c1	nt	nt	nt	5	0.5
COc1ccccc1CN(Cc1cccnc1)S(=O)(=O)c1ccc(-n2cnnn2)c(OC)c1	nt	nt	nt	-10	-3.3
CCOC(=O)CCn1c(CC(=O)OCC)nc2ccccc21	-14%	2	-38	-12	1.2
CC(C)(C)c1cc(CN2CCN(CCO)CC2)cc(C(C)(C)C)c1O	3%	0	10	46	-6.8
C=CCNC(=O)CCNS(=O)(=O)c1ccc(Br)cc1	2%	2	-12	?	-2.8
COc1ccccc1CNC(=O)C1CCN(S(=O)(=O)c2ccc3c(c2)CC(C)N3C(=O)C2CC2)CC1 (configuration not stated)	nt	nt	nt	-4	2.2
CC(C)CCN1CCNC(=O)C1CC(=O)N(C)CCCN1CCOCC1 (configuration not stated)	nt	nt	nt	-11	-1.2
CC(=O)N1CCN(Cc2nc3cc(NC(=O)COc4cccc(C)c4)ccc3n2C)CC1	nt	nt	nt	-9	0.7
Cc1ccc(S(=O)(=O)Nc2c(C)nc3nc(C)[nH]n3c2=O)cc1	nt	nt	nt	5	1.2
C=CCN1C(=O)c2ccc(C(=O)OCC(=O)N3CCN(c4ccccc4)CC3)cc2C1=O	nt	nt	nt	-4	-2.3
CCCCCCN(C(=O)CCCCCN1C(=O)NC(c2ccc(-c3ccccc3)cc2)C(C(=O)OCc2ccccc2)=C1C)C(C(=O)NCCCC)c1ccc(O)c(C(=O)OC)c1 (configuration not stated)	9%	nt	nt	nt	-5.3
CC(C)(C)N=C1C([N+](=O)[O-])=CC=C2C1=NC1(CCCCC1)N2O	2%	-11	-12	13	-3.9

Pulled one by one from the list above, two records:
SMILES	Mtb H37Rv	Arbovirus anti	YopH PTP inh	Mtb betalactam	RecA intein inh	others
O=c1c2ccccc2nnn1CSc1nnc(-c2cccs2)n1Cc1ccccc1	1%	3	-25	1	3.0
CCOC(=O)c1c(-c2ncc(C(F)(F)F)cc2Cl)noc1C	5%	4	nt	3	-1.1

Carrying on.
SMILES	Mtb H37Rv	Arbovirus anti	YopH PTP inh	Mtb betalactam	RecA intein inh	others
Cn1cc([N+](=O)[O-])c(C(=O)N/N=C/c2ccc([N+](=O)[O-])cc2)n1	-9%	4	-19	2	-2.6
O=C(/C=C/c1ccc(F)cc1)NCc1cccs1	-2%	-5	-23	-1	-5.5
O=C(CNC(=O)C12CC3CC(CC(C3)C1)C2)NC1=NCCS1	-7%	-1	6	-3	1.3
O=C(CCNC(=O)c1ccc(Cl)cc1)NCC(c1ccco1)N1CCCCC1 (configuration not stated)	nt	nt	nt	-10	0.4
Cc1cc(C)c(C#N)c(SCCS(=O)(=O)Cc2ccccc2)n1	1%	-4	-2	7	-0.3
Cc1cc(C)c2cc(C=O)c(Cl)nc2c1	-4%	-7	nt	-2	4.1
OC1c2cc(Br)ccc2N=C2CCCN21 (configuration not stated)	nt	nt	nt	?	7.7
COc1ccc(C(=O)Nc2nnc(SCC(=O)NCc3ccco3)s2)cc1OC	nt	nt	nt	1	-0.5
O=[N+]([O-])c1cc([N+](=O)[O-])c(Oc2c(F)cccc2F)cc1NN1CCCCC1	nt	nt	nt	0	-1.8
CN1CCN(C(=O)c2ccccc2NC(=O)C(C)(C)C)CC1	-7%	2	-11	-12	-0.8
Cc1ccc2c(c1)c(Sc1ccccc1)c(CC(=O)O)n2C	-3%	31*	-17	3	11
NS(=O)(=O)c1ccc(N=Cc2c(O)c3ccccc3oc2=O)cc1	-1%	-8	nt	-1	37*
COc1ccc(OC)c(CN2CCN(Cc3cccc4ccccc34)CC2)c1	12%	2	nt	-5	3.8
O=C(CCN1C(=O)[C@@H]2Cc3ccccc3CN2C1=O)N[C@H](C(=O)O)c1ccccc1	nt	nt	nt	5	2.8
CCc1ccc(NS(=O)(=O)c2ccc(OC)c(C)c2)cc1	17%	8	-22	nt	3.3
CC1=C(C(=O)Nc2ccccc2)C(c2ccco2)C(C#N)=C(SCC(=O)OC(C)C)N1 (configuration not stated)	12%	2	-12	94	nt
O=C(CSc1ccccc1C(=O)O)c1ccc([N+](=O)[O-])cc1	3%	-1	nt	-1	-4.9
COc1cccc(C(=O)NC(=S)Nc2ccccc2N2CCCCC2)c1	nt	nt	nt	49	3.2
